gsp ag: agonists of gsp mutant (McCune-Albright syndrome) | gsp mutant cells, cAMP HTRF, 30 min; control for the full effect not named in the record | Potency, µM (doses to about 76.9 µM), for inactives: at the highest dose activation (cAMP increase), most hits filed as activators | hit rate 0.13% among 340,000 | AID 624287; active = well fitted activation curve with a large enough effect; inconclusive = small, poorly fitted or top-dose-only effect, or another doubt; inactive = no such curve, though single readings can be large or run the other way; cell line not stated here;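 further: phosphodiesterase inhibitor Ro 20-1724 added with compounds to block cAMP breakdown; potency means the concentration at half of the fitted maximal effect; nearly all actives have a fitted effect of over 60% in size; about a fifth of the inactives were tested at one dose only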
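Cells in DMEM/10% FBS with G418 were pretreated with compounds in DMSO plus […] (300 uM stock) for 30 min at 37C. cAMP was measured by HTRF (cAMP-d2 plus anti-cAMP antibody-K) after 30 min at room temperature.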
ClpP mod: qHTS Assay for Activators of ClpP | purified B. subtilis ClpP, FRET peptide cleavage, 20 min | Potency, µM (highest dose often 57.5 µM), inactives show top-dose activity change, negative = active | hit rate 1.9% among 340,000; active = well fitted falling curve with a large enough effect; inconclusive = small, poorly fitted or top-dose-only effect; inactive = no such curve, though single readings can be large or run the other way; further: potency means the concentration at half of the fitted maximal effect; the source files actives as falling curves though it sought activators and does not explain the sign; nearly all actives have a fitted effect of over 65% in size; many hits overshoot -100%
Target sequence (P80244 whole entry, looked up): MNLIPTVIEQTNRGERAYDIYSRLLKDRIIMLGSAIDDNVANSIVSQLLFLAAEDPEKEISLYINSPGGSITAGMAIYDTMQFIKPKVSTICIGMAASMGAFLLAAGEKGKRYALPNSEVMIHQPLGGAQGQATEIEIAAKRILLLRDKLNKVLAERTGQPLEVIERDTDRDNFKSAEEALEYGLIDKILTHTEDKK
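ClpP 10 microg/mL final, pH 8 Tris/KCl buffer with BSA, glycerol, Tween-20; compound pinned in; FRET-FV substrate; RT 20 min; Ex320/Em430; ΔFRET vs ADEP 5.8 microM, DMSO, no enzyme.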
PINK1 expr mod: PINK1 expression modulation; PINK1 immunofluorescence, high-content cytometry, 24 h; Potency, µM (highest dose often 76.6 µM), without a hit: top-dose activation (PINK1 increase), usual class: activators; hit rate 0.2% among 410,000; active = well fitted activation curve with a large enough effect; inconclusive = small, poorly fitted or top-dose-only effect; inactive = flat fitted curve, though single readings scatter; cell line not stated here;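 further: potency means the concentration at half of the fitted maximal effect; % of control where 0% means no effect; nearly all actives have a fitted effect of over 65% in size; a mitochondrial uncoupler was the plate control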
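PINK1 protein level read as immunofluorescence by microplate cytometer in a fixed, stained stable cell line after 24 h exposure to five compound concentrations, with CCCP as control.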
Sfp PPTase inh: inhibitors of Bacillus subtilis Sfp phosphopantetheinyl transferase | Q9F4F7 | Biochemical Sfp PPTase activity, qHTS | Potency, µM, for the others: max response, negative = inhibition, most hits filed as inhibitors | hit rate 3.5% among 310,000 | AID 1490; active means well fitted inhibition curve with a large enough effect; inconclusive means small, poorly fitted or top-dose-only effect, or another doubt; inactive means no such curve, though single readings can be large or run the other way;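 further: the enzyme is Sfp with the accession as filed and its product quenches rhodamine fluorescence; potency means the concentration at half of the fitted maximal effect; 0% = enzyme reaction without inhibitor and -100% = no enzyme wells; top concentration of the series not given in the record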
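After 15 min at room temperature with compound, 15 nM Sfp received 5 uM rhodamine-CoA plus 12.5 uM BHQ-2-ybbR (50 mM Hepes pH 7.6, 10 mM MgCl2). Rate came from the fluorescence difference over 30 min, ex 525/em 598 nm.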
Menin MLL FP FL: menin-MLL binding inhibition, fluorescein peptide; 290,000 tested, under 10 active; FP activity change, % at 61.4 µM; AID 1766; Fluorescence polarization, fluorescein-MLL peptide displacement from menin; inconclusive = falling polarisation curve, or a change in total fluorescence; inactive = total fluorescence flat and polarisation flat or rising; no compound was filed as active; the % refers to the polarisation; negative = inhibition;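 further: % of control where 0% means no effect; inhibitors lower the polarisation; unlabelled MLL peptide was the positive control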
D2 ag: human D2 receptor agonism in beta-arrestin assay; P14416; DiscoveRx PathHunter D2 beta-arrestin, luminescence, 90 min; 100% = 57 uM dopamine signal; activation, % (concentration not given with the values); hit rate 0.084% among 360,000; in the data active = activation above about 40%; inconclusive = about 15% to 40%; inactive = below about 15%; further: compound concentration not given in the record; the text of the record calls up to 30% inactive
Target sequence (P14416 whole entry, looked up): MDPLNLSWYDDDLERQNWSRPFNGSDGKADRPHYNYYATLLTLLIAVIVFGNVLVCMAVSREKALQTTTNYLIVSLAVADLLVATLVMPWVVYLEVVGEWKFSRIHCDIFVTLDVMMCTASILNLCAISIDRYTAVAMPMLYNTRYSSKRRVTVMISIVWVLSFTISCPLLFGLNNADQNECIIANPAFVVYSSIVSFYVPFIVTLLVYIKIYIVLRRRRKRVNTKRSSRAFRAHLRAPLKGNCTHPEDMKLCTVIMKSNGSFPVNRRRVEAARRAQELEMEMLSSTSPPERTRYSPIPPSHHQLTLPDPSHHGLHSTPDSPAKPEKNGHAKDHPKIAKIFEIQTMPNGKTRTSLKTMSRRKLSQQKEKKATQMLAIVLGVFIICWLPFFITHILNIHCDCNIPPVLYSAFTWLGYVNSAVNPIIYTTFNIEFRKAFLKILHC
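Agonist mode: compounds alone added to overnight-plated D2 PathHunter cells for 90 min at 37 C, with 57 uM final dopamine (EC100) defining full response. Beta-arrestin recruitment detected by chemiluminescent reagent, read after 1 h at ambient temperature.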
gsp antagonist: antagonizes gsp, the McCune-Albright syndrome mutation; gsp-mutant cells, cAMP HTRF, 30 min; control for the full effect not named in the record; Potency, µM (doses to about 76.9 µM), inactives show at the highest dose activity change, negative = inhibition, actives largely listed as inhibitors; hit rate 0.4% among 340,000; active = falling curve of any shape with a large fitted effect; inconclusive = falling curve, mostly with a smaller effect; inactive = flat or rising curve; cell line not stated here;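 further: intracellular cAMP measured with PDE inhibitor Ro 20-1724 present during compound exposure; potency means the concentration at half of the fitted maximal effect; on the % scale 0 is the no-effect control and ±100 the full control effect; nearly all actives have a fitted effect of over 65% in size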
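Cells, 2000/well, grown 16–24 h in DMEM 10% FBS with 0.5 mg/ml G418, then compounds plus […] (300 uM addition stock), 30 min at 37C. cAMP read by HTRF (cAMP-d2 and anti-cAMP antibody-K in lysis buffer) after 30 min RT.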
The depositor's hits bear a star; ? = inconclusive; nt = not tested or not shown; [ ] = another dose, or the depositor's remark. Outcome played no part in choosing rows. Share with any hit: about 5.1%.

Values in the order: gsp ag | ClpP mod | PINK1 expr mod | Sfp PPTase inh | Menin MLL FP FL | D2 ag | gsp antagonist
1. O=C(COC(=O)/C=C/c1cccc(Cl)c1)Nc1cccc(S(=O)(=O)NC2=NCCC2)c1
 : 7% | 1.4% | 4.8% | nt | nt | -2.4 | 4%
2. Cn1c(=O)n(CC(=O)Nc2cccnc2)c2ccccc21
 : -26% | -0.1% | 1.8%[38.3 µM] | nt | nt | -4.3 | 1%
3. O=C(CCc1nc2ccccc2[nH]c1=O)N/N=C/c1ccccc1
 : 1%[15.4 µM] | nt | 0.8% | 12% | -1.1 | 0.5 | 0%
4. COCc1cc(=O)n2[nH]c(-c3cccs3)cc2n1
 : -22%[15.4 µM] | 0.1% | 0.7% | 11% | 1.0 | -3.3 | 7%
5. O=C(O)c1ccc(N/N=C/C(Br)=C/c2ccccc2)cc1
 : 3% | -0.2% | 2.0% | ? | 3.3 | -2.0 | -9%
6. CN(C)c1ccc(NC(=O)COC(=O)c2cc(=O)c3ccccc3o2)cc1
 : -6%[15.4 µM] | -0.9% | -0.8% | -6% | 1.5 | -4.9 | -11%
7. O=c1c(Cc2c(F)cccc2Cl)c(O)ccn1CC1CCCO1 (stereo unspecified)
 : 0% | nt | 1.6% | 8% | 0.3 | 5.9 | 8%
8. CCOC(=O)c1cc(CN2CCOCC2)oc1-c1ccccc1
 : -4% | -11% | 2.3% | ? | 2.2 | 0.1 | 14%
9. COc1ccc(NC(=O)CSc2nc3ccccc3nc2N2CCCC2)cc1Cl
 : 2% | -17% | 4.0% | 3% | 6.9 | -4.5 | -10%
10. O=C(NC(=S)N1CCN(C/C=C/c2ccccc2)CC1)c1ccco1
 : -4% | 0.5% | 1.1% | 14% | -1.0 | -4.6 | -2%
11. OC[C@@H]1CN(Cc2ccc3c(c2)OCO3)C[C@H](n2cnc3c(NC4CCCC4)ncnc32)O1
 : nt | -0.8% | 3.2% | nt | nt | 2.8 | nt
12. C=CCN(CC(=O)NCc1ccc(F)cc1)C(=O)c1csnn1
 : -25% | -2.9% | 1.1% | 13% | 1.0 | -2.7 | 4%
13. Cn1cnc(C(=O)N2CCN(c3ccccc3)CC2)c1C(=O)N1CCN(c2ccccc2)CC1
 : nt | -6.1% | 2.4% | nt | nt | -1.9 | 3%
14. O=C(c1ccco1)N1CCN(C2CCCC2)CC1
 : -13% | -8.5% | -1.3% | 6% | 2.5 | -0.5 | -8%
15. O=C1CCC(=O)N1c1ccc(NCc2ccccc2Cl)c([N+](=O)[O-])c1
 : -31%[inhibitor] | -2.5% | -0.6% | -5% | 0.2 | -1.1 | -7%
16. Cc1ccc(-c2nc(N)sc2CC(=O)OCC(=O)NC2CCCC(C)C2C)cc1 (stereo unspecified)
 : -4% | -8.7% | 3.2% | -5% | 11 | -5.1 | -15%
17. COc1ccccc1CN(Cc1cc2cc(C)ccc2[nH]c1=O)Cc1nnnn1Cc1ccco1
 : -51%[inhibitor] | ? | -2.6% | ? | 17 | -4.1 | -25%
18. CC1CCCCN1C(=O)CSc1nnc(-c2ccc(Cl)s2)o1 (stereo unspecified)
 : -1% | ? | 0.7% | -3% | 0.8 | -3.0 | -13%[15.4 µM]
19. S=C(NCCSCc1ccc(Cl)c(Cl)c1)Nc1ccccc1
 : 6% | -2.2% | 0.3% | nt | nt | 0.5 | -14%
20. O=C(C=Cc1ccccc1)c1cc(Br)ccc1O
 : 11%[15.4 µM] | -0.4% | 9.2% | nt | nt | 0.9 | -1%
21. CC1CCCCC1NC(=O)COC(=O)C12CC3CC(CC(Cl)(C3)C1)C2 (stereo unspecified)
 : 18%[15.4 µM] | nt | 0.0% | 10% | 0.0 | -0.2 | nt
22. C#CCOCCOCCOCCNc1nc(N2CCN(C(=O)CCCCCCCCCCNC(=O)[C@H]([C@@H](C)CC)n3cc(CCCCCN)nn3)CC2)nc(N2CCN(C(=O)CCCCCCCCCCNC(=O)[C@H](CO)n3cc(CCCCCN)nn3)CC2)n1
 : ? | 1.8% | 0.3% | nt | nt | 4.8 | -6%
23. CCC(Sc1ncccc1C(=O)OC(C)C)C(=O)NCc1ccco1 (stereo unspecified)
 : 9% | -3.1% | 15%[38.3 µM] | -1% | 0.6 | -0.9 | -13%
24. O=C(Cc1cccc(NC(=O)C2CCCN(C(=O)C3CCCCC3)C2)c1)Nc1cccc(C(=O)N2CCCCC2)c1 (stereo unspecified)
 : nt | 1.9% | -0.9% | nt | nt | 1.6 | 1%
25. CN(C)c1nc(N)ncc1-c1ccc(Oc2ccccc2)cc1
 : -15%[15.4 µM] | nt | 1.4% | 23% | 4.7 | -0.5 | 6%
26. O=C(NCCNCc1ccccc1)c1ccco1
 : 14%[15.4 µM] | nt | -0.5% | nt | nt | -2.1 | -16%
27. C=CCNC(=O)CC(=O)N/N=C/c1cccs1
 : -2% | 1.4% | 1.0% | 21% | -2.5 | 1.0 | -12%
28. CCOCCc1nnc(NC(=O)c2ccc(OC)c(OC)c2)s1
 : ? | -9.5% | 2.6% | 4% | -0.2 | -1.5 | 8%
29. O=C(Cn1nnc(-c2ccncc2)n1)N1CCc2ccccc21
 : -50%[inhibitor] | 0.5% | nt | 12% | 3.5 | -0.3 | 0%
30. CN(CC(=O)Nc1ccccc1F)CC(=O)Nc1ccc(F)c(F)c1F
 : 2% | -1.5% | -1.0% | ? | 2.5 | -2.3 | -8%
31. NC(=O)NC(CC(=O)NNC(=O)c1ccccn1)c1ccc(Cl)cc1 (stereo unspecified)
 : 1% | 1.6% | 0.8% | nt | nt | ? | 14%
32. Cc1ccc(CNC(=O)CN(C)S(=O)(=O)c2cccc3cccnc23)cc1
 : -2% | -1.5% | 0.4% | 5% | 3.0 | -3.4 | 2%
33. COc1ccc(CCNC(=O)c2ccccc2NS(=O)(=O)c2c(F)cccc2F)cc1
 : -20% | nt | -0.5% | 6% | 3.5 | -0.7 | -25%
34. Cc1cc(C)cc(N(CCC#N)C(=O)COC(=O)CN2C(=O)NC(C)(C)C2=O)c1
 : 1%[15.4 µM] | nt | -0.7% | nt | nt | 1.3 | -11%
35. N#CC(C#N)=C1C=CC=CN1/C(=C\c1ccccc1)C(=O)c1cccs1
 : -39%[inhibitor] | -17% | 1.2% | 2.2µM* | -2.6 | 0.0 | -3%
36. C=CCN(c1ccc(C(=O)Nc2ccc(C)c(C)c2)cc1)S(C)(=O)=O
 : 7% | -2.3% | -0.3% | -6% | -0.1 | 0.0 | 5%
37. CC(NC(=O)c1ccccc1F)c1nnc(SCC(=O)NC2CCCC2)n1C (stereo unspecified)
 : ? | -2.3% | 2.0% | 14% | nt | 0.6 | 15%
38. NS(=O)(=O)c1ccc(N2N=C(c3ccccc3)CC2c2cccc(Br)c2)cc1 (stereo unspecified)
 : nt | 4.0% | -1.5% | nt | nt | -1.8 | -4%
39. CC(=O)Nc1ccc(C(=O)COC(=O)Cc2ccsc2)c(F)c1
 : 13% | nt | 0.0% | nt | nt | -1.5 | 3%
40. CCOC(=O)C1CCCN(C(=O)c2ccc(OCC)cc2)C1 (stereo unspecified)
 : -3% | -1.5% | -1.5% | -5% | 6.8 | 0.1 | 2%
41. COc1ccccc1N1CCN(C(=O)c2cc(-c3ccccc3)nc3c2cnn3C(C)C)CC1
 : -12% | -3.9% | 6.8% | nt | nt | -0.9 | nt
42. COc1cc(CC(=O)OCC(=O)NC2CCCC2)cc(OC)c1OC
 : 2% | -0.1% | 0.6% | nt | nt | 3.7 | 5%
43. Cc1ccc(NC(=O)CSc2nncn2-c2ccccn2)cc1Cl
 : -19% | nt | 16% | 1% | -6.5 | 3.9 | -4%
44. CN(c1ccccc1)c1cc(=O)[nH]c(=O)[nH]1
 : -8%[15.4 µM] | -1.7% | 1.1% | 7% | -0.5 | -4.8 | 8%
45. CCOC(=O)CC1C(=O)NCCN1Cc1ccc(OC)c(OC)c1 (stereo unspecified)
 : -8%[15.4 µM] | nt | 0.4% | 16% | -4.3 | -5.7 | 13%
46. COc1ccccc1CNC(=O)c1ccccc1N(C)S(C)(=O)=O
 : 4% | 0.1% | 2.7%[38.3 µM] | 14% | 3.0 | -0.8 | 3%
47. O=S1(=O)CC(N2CC=CC2)CN1Cc1ccccc1 (stereo unspecified)
 : nt | -5.3% | -0.6% | nt | nt | -5.2 | nt
48. COc1cccc(OCCc2c(C)n[nH]c2C)c1
 : -6% | 1.0% | 4.7% | ? | 1.0 | -2.5 | -8%
49. O=c1[nH]c2ccccc2n2c(C(F)(F)F)nnc12
 : 33% | nt | 6.9% | 3% | ? | ? | -7%
50. COc1ccc(/C=C2\SC(=S)N(CC(=O)NC3C=CS(=O)(=O)C3)C2=O)cc1 (stereo unspecified)
 : 18% | -1.1% | 2.7% | -2% | 1.5 | -0.6 | 4%

(cont.)
Values in the order: gsp ag | ClpP mod | PINK1 expr mod | Sfp PPTase inh | Menin MLL FP FL | D2 ag | gsp antagonist
51. FC(F)(F)c1ccccc1-n1c(-c2ccco2)n[nH]c1=S
 : 3% | nt | 2.4% | 11% | -1.1 | 1.8 | -6%
52. Cc1cc(C)c(-c2c(O)c3ccccc3n(C)c2=O)c(C)c1
 : 3% | 4.0% | 0.0% | nt | nt | -5.2 | -25%
53. C=CCSc1nnc(-c2cc3c(s2)-c2ccccc2CC3)o1
 : 0% | -1.6% | 2.9% | -13% | 0.8 | 0.6 | -4%
54. CC(=O)N1CCN(c2ccc(NC(=O)c3ccc([N+](=O)[O-])cc3Cl)cc2)CC1
 : ? | nt | -0.4% | 18% | 0.5 | 8.9 | 7%
55. O=[N+]([O-])c1ccc(-n2nncc2-c2ccc(Cl)cc2)cc1
 : -31%[inhibitor] | -0.1% | 1.3%[38.3 µM] | 12% | 3.1 | -3.8 | 0%
56. COc1ccc(-c2ccc(CCC(=O)O)n2CC(C)C)cc1
 : 2% | 32µM* | ? | ? | ? | -0.9 | 8%
57. O=C(COC(=O)Cc1ccc(-c2ccccc2)cc1)NCc1ccccc1
 : ? | 0.8% | 7.5% | 3% | 8.6 | -3.8 | -3%

Screens deposited in PubChem BioAssay by National Center for Advancing Translational Sciences (NCATS).
